Insulin prom inh – TRM-6 insulin promoter activity inhibition; TRM-6 cells (human fetal islet line), insulin promoter-eGFP reporter, imaging; reporter expression induced with tamoxifen; inhibition, % at 2 µM; 130,000 compounds, 0.9% hits;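 active = inhibition above the mean plus 3 SD, with well images judged a real hit on visual review, cut at about 60% in these data, passing the limit was not always enough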
HSV augment – HSV replication enhancement. HSV replication augmentation in cells, fold increase. maximum fold increase. 220,000 compounds, 0.005% hits;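 active = peak rise of 1.5-fold or more in the series; tested in PC3 cells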;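 note: first round at 10 µM; read as green reporter fluorescence; hits show the peak of a series up to 25 µM; 1 = signal of infected wells without compound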
GALR2 ag – activates the human galanin receptor 2. GALR2-expressing cells, agonist activation read-out. O43603. activation, %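 (tested at 5 µM)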. 140,000 compounds, 0.48% hits. AID 803;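 active = above mean plus 3 SD of all compounds, about 5% in these data, not always enough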;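 note: 0% = vehicle buffer wells and 100% = reference agonist at full effect; tested in CHO reporter cells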
Target sequence (O43603 whole entry, looked up): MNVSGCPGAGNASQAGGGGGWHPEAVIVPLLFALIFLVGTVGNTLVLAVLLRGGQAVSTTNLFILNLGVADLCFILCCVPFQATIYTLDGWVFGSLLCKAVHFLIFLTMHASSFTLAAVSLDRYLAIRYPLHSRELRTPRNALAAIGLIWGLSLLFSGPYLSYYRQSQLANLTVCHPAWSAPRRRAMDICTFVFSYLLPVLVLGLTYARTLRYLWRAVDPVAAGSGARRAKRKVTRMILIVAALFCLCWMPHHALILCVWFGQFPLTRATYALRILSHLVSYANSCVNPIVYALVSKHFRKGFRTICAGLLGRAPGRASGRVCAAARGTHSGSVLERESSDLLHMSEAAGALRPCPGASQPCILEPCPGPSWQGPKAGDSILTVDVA
PKD1 kinase inh – blocks activity of human protein kinase D1; AID 797; 200,000 compounds, 0.056% hits; inhibition, %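 (about 10 µM by stock and volumes)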; Q15139; PKD1 kinase fluorescence polarization assay;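 active = inhibition of 50% or more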;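 note: controls were vehicle for no effect and a reference inhibitor for full effect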
RGS16-Gao – RGS16-Galphao interaction regulator (human) | O15492+P09471 | bead-based flow cytometry RGS16-Galphao binding, fluorescence; actives lie on both sides | binding response (% of control), % at 10 µM | 220,000 compounds, 0.38% hits;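 active = below 25% or above 175%, edge rows of some plates excepted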;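 note: Galphao activated by GDP with aluminum fluoride before binding; 100% = wells without compound and 0% = beads without RGS; some results beyond the cut were filed as inactive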
Target sequence (O15492 whole entry, looked up): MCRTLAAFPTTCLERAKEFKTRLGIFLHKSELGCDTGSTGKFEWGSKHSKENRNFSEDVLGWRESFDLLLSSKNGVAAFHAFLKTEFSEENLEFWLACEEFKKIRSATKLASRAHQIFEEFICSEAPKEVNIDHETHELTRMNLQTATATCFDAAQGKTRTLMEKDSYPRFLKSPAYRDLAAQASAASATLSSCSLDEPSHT
Target sequence (P09471 whole entry, looked up): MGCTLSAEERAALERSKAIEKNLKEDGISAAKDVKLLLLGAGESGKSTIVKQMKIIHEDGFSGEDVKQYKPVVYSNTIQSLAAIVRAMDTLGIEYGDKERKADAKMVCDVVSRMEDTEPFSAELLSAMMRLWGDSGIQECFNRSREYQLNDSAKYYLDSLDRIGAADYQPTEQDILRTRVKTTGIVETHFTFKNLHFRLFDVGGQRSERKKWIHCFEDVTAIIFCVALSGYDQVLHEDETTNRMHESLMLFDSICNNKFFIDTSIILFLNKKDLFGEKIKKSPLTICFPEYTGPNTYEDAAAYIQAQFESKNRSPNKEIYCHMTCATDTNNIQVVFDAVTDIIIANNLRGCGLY
Insulin prom inh cell count – further read-out of Insulin prom inh, marked with its call; normalized cell count, %; measured here: cell count, toxicity; reference of the scale not given here;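 cells exposed to compound for 48 h; stained nuclei by imaging scaled within each plate; lower means fewer cells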
HSV augment primary fold – recorded beside HSV augment, whose call it bears; fold increase; compound at 10 µM; measured here: primary screen fold increase 10 uM; tested in PC3 cells;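 GFP signal in the first replicate; 1 = infected wells without compound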
* hit, by the source's call; i = inactive; · = no result given.

SMILES | Insulin prom inh | Insulin prom inh cell count | HSV augment | HSV augment primary fold | GALR2 ag | PKD1 kinase inh | RGS16-Gao
Cc1cnc(NC(=O)[C@H](C)N2C(=O)C3CCCCC3C2=O)s1 (some centres undefined) | -75 | 135 | i | 1 | · | -2 | 92
Cc1cccc(NC(=O)Cn2cnc3sc(C)c(S(=O)(=O)N4CCC(C)CC4)c3c2=O)n1 | -18 | 129 | i | 0.96 | 0.6 | -13 | 103
CC(C)(C)CC(C)(C)NCC(O)COc1c(F)cc(Br)cc1F (centres undefined) | -41 | 125 | i | 0.79 | -0.7 | -6 | 108
CC(C)CCn1nnnc1CN1CCN(C(c2ccccc2)c2ccccc2)CC1 | · | · | i | 0.98 | · | -4 | 100
CCOC(=O)Nc1ccc2c(c1)nc(CN1CCCCC1)n2C | · | · | i | 0.89 | · | -4 | 96
CC1CCc2c(nc3ncnn3c2NCCN(C)C)C1 (centres undefined) | 0 | 47 | i | 0.98 | · | 12 | 101
O=C(Nc1c(-c2ccccc2)nc2c(Br)cc(Br)cn12)c1ccco1 | · | · | i | 0.98 | -1.4 | 0 | 100
CCOC(=O)/C=C1\SCC(=O)N1CC(O)CN1C(=O)CS/C1=C\C(=O)OCC | -18 | 53 | i | 1 | -1.1 | -4 | 106
O=C1C2C(C(=O)N1Cc1cccnc1)C1C=CC2C12CC2 (centres undefined) | 28 | 64 | i | 0.92 | -3.0 | -1 | 74
OC1(c2ccccc2)c2ccccc2-c2ncccc21 (centres undefined) | · | · | i | 1 | · | -4 | 100
O=C(NCc1ccc(Cl)cc1)C1CCN(S(=O)(=O)c2cc([N+](=O)[O-])ccc2Cl)CC1 | · | · | i | 0.76 | -0.3 | 1 | 117
Cc1cccc(NC(=O)CN2C(=O)NC(Cc3ccccc3)C2=O)c1 (centres undefined) | 41 | 132 | i | 0.92 | -1.8 | -4 | 190
CCc1ccc(C(=O)OCC(=O)Nc2cccc(S(=O)(=O)NC3=NCCCCC3)c2)cc1 | 31 | 121 | i | 0.86 | -0.1 | -9 | 105
O=c1cc(-c2ccccc2[N+](=O)[O-])oc2ccccc12 | · | · | i | 0.8 | · | 1 | 110
COc1ccc(-n2c(SCC(=O)Nc3nccs3)nnc2-c2ccccc2)cc1 | 48 | 62 | i | 0.99 | 0.2 | -5 | 112
O=C1c2ccsc2SCCN1Cc1ccccc1Cl | 29 | 65 | i | 0.87 | 2.5 | -6 | 102
CCN(CC)CC(=O)Nc1c(Br)ccc2c1OCO2 | 20 | 109 | i | 0.9 | -2.4 | -11 | 103
CC1=NN(c2ccc(C)c(C)c2)C(=O)/C1=C\C=C\c1ccc([N+](=O)[O-])o1 | -331 | 18 | i | 0.78 | · | 5 | 96
Cc1cc(S(=O)(=O)Cc2noc(-c3c(C)noc3C)n2)c(C)cc1Cl | · | · | i | 0.86 | · | · | 99
CC1CCc2c(cnc3ncnn23)C1 (centres undefined) | · | · | i | 0.93 | · | · | 99
COC(=O)COc1ccc(Oc2cc(C)nc(SC)n2)nn1 | 0 | 106 | i | 1 | -1.4 | -4 | 98
CCn1cc(C(=O)O)c(=O)c2cnc(N3CCN(C(=S)Nc4ccccc4)CC3)nc21 | · | · | i | 0.86 | · | · | 96
Nc1cccc2c1C(=O)N(Cc1cccc(Cl)c1)C2=O | -14 | 59 | i | 0.96 | · | -8 | 99
CCOC(=O)c1sc(NC(=O)c2ccco2)c(C#N)c1C | 0 | 104 | i | 0.97 | -2.0 | -7 | 104
COc1ccc(C(=O)NNC(=O)OC(C)(C)C)cc1 | · | · | i | 1 | · | · | 92
CC(C)(c1ccccc1)c1ccc(OCC(O)CNC2CCN(Cc3ccccc3)CC2)cc1 (centres undefined) | 11 | 110 | i | 0.68 | · | -3 | 103
O=C(c1cccc(OC2CCN(C3CCCC3)CC2)c1)N1CCCCCCC1 | · | · | i | 1 | · | -1 | 119
CCC(C)(C)NC(=O)/C=C/c1ccccc1[N+](=O)[O-] | · | · | i | 0.94 | · | 0 | 102
Cc1cccc(C)c1NC(=S)NC(=O)c1ccccc1F | -40 | 60 | i | 1 | -0.7 | 4 | 90
Cc1cc(C(=O)OCC(=O)Nc2cccc(S(=O)(=O)N(C)C)c2)c2ccccc2n1 | -22 | 119 | i | 0.97 | · | 5 | 99
Cc1cc(NC(=S)N(CCN2CCOCC2)Cc2ccccc2F)ccc1Cl | -50 | 106 | i | 0.95 | · | 1 | 80
CC(C)(C)NC(=O)Cn1cnc2cc([N+](=O)[O-])ccc2c1=O | · | · | i | 0.81 | · | -5 | 97
O=c1oc2cccnc2n1CCS(=O)(=O)c1ccc(F)cc1 | · | · | i | 1 | · | · | 91
Cc1ccc(S(=O)(=O)N(CC(=O)NCc2cccnc2)C2CCCCC2)cc1 | · | · | i | 1.1 | · | 1 | 105
CC(=O)c1c(-c2ccccc2)c2ccccc2[nH]c1=O | · | · | i | 0.93 | · | 1 | 108
CCOC(=O)/C=C/C(=O)N1CCc2ccccc21 | -61 | 1 | i | 0.65 | -1.6 | -7 | 100

Ordered by formula weight (high to low): some entries from above.
SMILES | Insulin prom inh | Insulin prom inh cell count | HSV augment | HSV augment primary fold | GALR2 ag | PKD1 kinase inh | RGS16-Gao
Cc1ccc(S(=O)(=O)N(CC(=O)NCc2cccnc2)C2CCCCC2)cc1 | · | · | i | 1.1 | · | 1 | 105
O=c1oc2cccnc2n1CCS(=O)(=O)c1ccc(F)cc1 | · | · | i | 1 | · | · | 91
CCC(C)(C)NC(=O)/C=C/c1ccccc1[N+](=O)[O-] | · | · | i | 0.94 | · | 0 | 102

Following part
SMILES | Insulin prom inh | Insulin prom inh cell count | HSV augment | HSV augment primary fold | GALR2 ag | PKD1 kinase inh | RGS16-Gao
Cc1cccc(CC(=O)N2CCC(N3CCC(C(=O)N4CCOCC4)CC3)CC2)c1 | · | · | i | 0.93 | · | -1 | 93
Cc1cccc(N(C(=O)Nc2ccc(Cl)cc2)C2=NCC(C)S2)n1 (centres undefined) | · | · | i | 0.98 | · | -8 | 97
O=C(NCc1ccc[n+](CCCCS(=O)(=O)[O-])c1)c1ccc(OC(F)F)cc1 | · | · | i | 0.98 | · | 0 | 102
CCN(CC)S(=O)(=O)c1cc(C)ccc1NC(=S)Nc1cccnc1 | -57 | 147 | i | 0.94 | · | 6 | 102
O=C(NCCCn1ccnc1)C(=O)NC1CCCCC1 | 27 | 92 | i | 1.2 | · | -3 | 117
O=C(NC1CCN(C(=O)Nc2ccccc2)CC1)C1CCCCC1 | · | · | i | 0.79 | -1.5 | -7 | 94
O=C(Cn1cncn1)c1ccccc1 | · | · | i | 1.1 | · | · | 84
CCc1ccc(NC(=S)N(Cc2ccc(Cl)cc2)Cc2ccc(C(=O)O)cc2)cc1 | · | · | i | 0.98 | · | 1 | 99
COc1ccccc1NC(=S)NNC(=O)c1cc(C)nn1C | -46 | 96 | i | 0.93 | 0.0 | -2 | 100
CCNC(=S)N=Nc1c(O)[nH]c2ccc(C(C)C)cc12 | 64* | 118* | i | 0.99 | 0.5 | 16 | 88
Cc1ccc(C)c(S(=O)(=O)Nc2ccccc2C(=O)Nc2ccccc2N2CCOCC2)c1 | 0 | 169 | i | 0.51 | -1.4 | -6 | 100
COc1ccc(-c2cc(C(F)(F)F)nc(SCC(=O)NCc3cccs3)n2)cc1 | -2 | 123 | i | 0.86 | -0.2 | 3 | 101

An excerpt of the results above, as a working copy:
SMILES | Insulin prom inh | Insulin prom inh cell count | HSV augment | HSV augment primary fold | GALR2 ag | PKD1 kinase inh | RGS16-Gao
Cc1cccc(C)c1NC(=S)NC(=O)c1ccccc1F | -40 | 60 | i | 1 | -0.7 | 4 | 90
Cc1cc(C(=O)OCC(=O)Nc2cccc(S(=O)(=O)N(C)C)c2)c2ccccc2n1 | -22 | 119 | i | 0.97 | · | 5 | 99
Cc1cc(NC(=S)N(CCN2CCOCC2)Cc2ccccc2F)ccc1Cl | -50 | 106 | i | 0.95 | · | 1 | 80
CC(C)(C)NC(=O)Cn1cnc2cc([N+](=O)[O-])ccc2c1=O | · | · | i | 0.81 | · | -5 | 97
O=c1oc2cccnc2n1CCS(=O)(=O)c1ccc(F)cc1 | · | · | i | 1 | · | · | 91
Cc1ccc(S(=O)(=O)N(CC(=O)NCc2cccnc2)C2CCCCC2)cc1 | · | · | i | 1.1 | · | 1 | 105
CC(=O)c1c(-c2ccccc2)c2ccccc2[nH]c1=O | · | · | i | 0.93 | · | 1 | 108
CCOC(=O)/C=C/C(=O)N1CCc2ccccc21 | -61 | 1 | i | 0.65 | -1.6 | -7 | 100
Cc1cccc(CC(=O)N2CCC(N3CCC(C(=O)N4CCOCC4)CC3)CC2)c1 | · | · | i | 0.93 | · | -1 | 93
Cc1cccc(N(C(=O)Nc2ccc(Cl)cc2)C2=NCC(C)S2)n1 (centres undefined) | · | · | i | 0.98 | · | -8 | 97
O=C(NCc1ccc[n+](CCCCS(=O)(=O)[O-])c1)c1ccc(OC(F)F)cc1 | · | · | i | 0.98 | · | 0 | 102
CCN(CC)S(=O)(=O)c1cc(C)ccc1NC(=S)Nc1cccnc1 | -57 | 147 | i | 0.94 | · | 6 | 102
O=C(NCCCn1ccnc1)C(=O)NC1CCCCC1 | 27 | 92 | i | 1.2 | · | -3 | 117
O=C(NC1CCN(C(=O)Nc2ccccc2)CC1)C1CCCCC1 | · | · | i | 0.79 | -1.5 | -7 | 94
O=C(Cn1cncn1)c1ccccc1 | · | · | i | 1.1 | · | · | 84
CCc1ccc(NC(=S)N(Cc2ccc(Cl)cc2)Cc2ccc(C(=O)O)cc2)cc1 | · | · | i | 0.98 | · | 1 | 99
COc1ccccc1NC(=S)NNC(=O)c1cc(C)nn1C | -46 | 96 | i | 0.93 | 0.0 | -2 | 100
CCNC(=S)N=Nc1c(O)[nH]c2ccc(C(C)C)cc12 | 64* | 118* | i | 0.99 | 0.5 | 16 | 88

Remaining list, next part:
SMILES | Insulin prom inh | Insulin prom inh cell count | HSV augment | HSV augment primary fold | GALR2 ag | PKD1 kinase inh | RGS16-Gao
COc1ccc(Cn2nnnc2C(c2cccs2)N2CCN(c3ccccc3)CC2)cc1 (centres undefined) | 27 | 95 | i | 1.1 | -0.8 | -10 | 99
COc1cc(S(=O)(=O)N2CCCCC2)ccc1NC(=O)/C=C/c1ccccc1 | -50 | 108 | i | 0.91 | -1.8 | -2 | 97
CCC(=O)NCc1csc(-c2cccs2)n1 | · | · | i | 1 | · | · | 102
O=S(=O)(c1ccc(F)cc1)N1CCN(c2nc(-c3ccc(F)cc3)cs2)CC1 | 31 | 57 | i | 1.1 | -1.6 | -11 | 97
COC(=O)C(N)Cc1ccc(O)c(O)c1 (centres undefined) | 34 | 78 | i | 1.2 | -2.9 | 0 | 97
COc1ccc2c(c1)-c1ccccc1S(=O)(=O)N2C | 14 | 175 | i | 1 | 0.4 | -7 | 103
O=[N+]([O-])c1nn(-c2ccc(Cl)cc2)n(O)c1=NCc1ccncc1 | · | · | i | 0.97 | · | -6 | 98
CCOc1cc(N2CCOCC2)c(OCC)cc1NC(=O)COC(=O)[C@H](Cc1c[nH]c2ccccc12)NC(C)=O | 35 | 77 | i | 0.98 | -0.3 | 1 | 101
O=C(CN1C(=O)S/C(=C\C=C\c2ccccc2)C1=O)Nc1ccc(C(=O)O)cc1 | · | · | i | 0.97 | · | · | 100
O=C(Cn1c(-c2cscn2)nc2ccccc21)Nc1cc(F)ccc1F | 28 | 130 | i | 1 | -1.4 | -7 | 124
Cc1cccn2c(NC(=O)c3cccs3)c(-c3ccccc3)nc12 | · | · | i | 0.92 | -0.8 | -1 | 103
COc1ccc([N+](=O)[O-])cc1NC(=O)CSc1nccc(C)n1 | 3 | 124 | i | 0.96 | 1.0 | 10 | 95
COC(=O)c1cccc(NC(=O)CCc2ccccc2)c1 | -10 | 111 | i | 0.9 | -0.5 | -3 | 101
CCn1c(SCc2nc(-c3ccccc3)no2)nnc1-c1ccco1 | -115 | 150 | i | 0.86 | -3.0 | 1 | 102
CCOC(=O)c1[nH]ncc1CN1CCCC(C(=O)c2ccc(SC)cc2)C1 (centres undefined) | · | · | i | 1.1 | · | -7 | 107
N#CC1=C(SCC(N)=O)NC2=C(C(=O)c3ccccc32)C1c1ccc(Cl)cc1 (centres undefined) | -37 | 122 | i | 0.44 | -1.5 | -2 | 98
CCC(=O)N1CCc2cc(S(=O)(=O)NC(C(=O)N3CCc4ccccc4C3)C(C)C)ccc21 (centres undefined) | -29 | 100 | i | 0.96 | -1.5 | -11 | 108
CN(C)CCCNC(NC(=O)/C=C/c1ccccc1)C(Cl)(Cl)Cl (centres undefined) | · | · | i | 0.93 | · | · | 103
O=C(CN1CCCC1)Nc1cc(C(F)(F)F)cc(C(F)(F)F)c1 | · | · | i | 0.91 | · | · | 100
COc1cccc(N/C=C(\C#N)c2ccc(OCCCF)cc2)c1 | 36 | 128 | i | 0.97 | -3.1 | 0 | 117
COC(=O)COc1ccc(S(=O)(=O)N2CCN(c3ccc(OC)cc3)CC2)cc1 | 38 | 80 | · | · | · | -10 | 107
COc1cc(C(=O)N/N=C/c2ccc(OC)c(CN3CCN(c4ccc(F)cc4)CC3)c2)ccc1O | · | · | i | 0.96 | · | 7 | 104
